Screens: PubChem BioAssay, National Center for Advancing Translational Sciences (NCATS)
Vaccinia mCherry = vaccinia inhibition (mCherry reporter) | Vaccinia virus mCherry reporter infection, fluorescence; about a quarter of the inactives have no number | Potency, µM (doses to about 36.5 µM), for the others: top-dose activity change, negative = inhibition, actives largely listed as inhibitors | 310,000 tested, 0.63% active; active = well fitted inhibition curve with a large enough effect; inconclusive = small, poorly fitted or top-dose-only effect; inactive = no such curve, though single readings can be large or run the other way; tested in A549 cells; further: nearly all actives have a fitted effect of over 35% in size; inactives centre near -10
VACV Venus inh = inhibitors of vaccinia virus (Venus reporter); Vaccinia virus Venus reporter expression, fluorescence; Potency, µM (titrated, usually from 36.5 µM), without a hit: at the top dose activity change, negative = inhibition, actives largely listed as inhibitors; 330,000 tested, 0.46% active; active means well fitted inhibition curve with a large enough effect; inconclusive means small, poorly fitted or top-dose-only effect; inactive means no such curve, though single readings can be large or run the other way; tested in A549 cells; further: nearly all actives have a fitted effect of over 30% in size; inactives centre near -10
Active calls of the source: *; i = inactive; ? = inconclusive; · = not tested or not shown; & = joins results of further samples; [ ] = remark or other dose. On the % scale 0 is the no-effect control and ±100 the full control effect; potency means the concentration at half of the fitted maximal effect.

SMILES	Vaccinia mCherry	VACV Venus inh
Cc1ccc(S(=O)(=O)CCC(=O)OCc2cc(C)ccc2C)cc1	-1%	-6%
Cc1ccccc1S(=O)Cc1ccc(C(=O)N2CCN(c3cccc(C)c3C)CC2)o1 (stereo not given)	-22%	-22%
O=C(Nc1ccc(Oc2ccccc2)cc1)c1csc([C@H]2C[C@H](O)[C@@H](CO)O2)n1	-12%	-27%
CCNc1nc(NCC)nc(SCCOC(=O)Nc2ccc(Cl)cc2Cl)n1	-22%	-17%
CCOC(=O)c1sc2ncnc(N3CCN(CC)CC3)c2c1C	-15%	-13%
CCOC(=O)Nc1ccc2nc(N3CCCCCC3)sc2c1	-23%	?
O=C/C(=C\Nc1ccc(Br)cc1)c1nc2ccccc2o1	-6%	-2%
Cc1ccc(S(=O)(=O)Oc2ccccc2/C=C2/SC(=O)NC2=O)cc1	-22%	-6%
Cc1ccc(-n2ncc3c(NCc4cccnc4)ncnc32)c(C)c1	-12%	-17%
CCn1c(SCC(=O)NC2CCCCC2)nnc1C(CO)NC(=O)c1ccccc1 (stereo not given)	-10%	-13%
CC(NC(=O)C(C)N1CCN(Cc2ccccc2)CC1)c1ccc(F)cc1 (stereo not given)	-19%	2%
CCn1cc(Cl)c(C(=O)Nc2nc3ccccc3n2CCN2CCCCC2)n1	-22%	-24%
CCCCN(C(=O)C(C)N1C(=O)c2ccccc2C1=O)c1c(N)n(CC(C)C)c(=O)[nH]c1=O (stereo not given)	-14%	-16%
COc1ccc(N(CC(=O)NC2CCCC2)C(=O)Cn2nnc(-c3ccc(C)o3)n2)c(OC)c1	-5%	5%
COc1ccc(N2CC(C(=O)OCC(=O)Nc3cccc(C)c3C)CC2=O)cc1 (stereo not given)	-5%	-9%
CC1(C)CC(N2CN(C3CCCCC3)CC2=O)CC(C)(C)N1	·	-24%
Cc1ccc(Cn2c(SCc3ccc(C(=O)O)cc3)nc3cccnc32)cc1	-8%	-5%
N#Cc1ccccc1NC(=O)COC(=O)c1c[nH]c2ccccc12	-13%	-15%
Cc1nc(Nc2ccc(C(=O)O)cc2)sc1-c1ccccc1	i	-8%
C/C(CC(=O)NCc1ccco1)=N\NC(=O)COc1ccc(Cl)cc1Cl	-25%	-15%
Cc1ccc(C2C(C=Nc3c(C)n(C)n(-c4ccccc4)c3=O)=C(c3ccccc3)Oc3ccccc32)cc1 (stereo not given)	?	-18%
COc1cc(CC(=O)Oc2ccc3c(c2)OCO3)cc(OC)c1OC	4%	4%
CCOC(=O)C1CN(S(=O)(=O)c2ccc(OC)cc2)c2ccccc2O1 (stereo not given)	i	-11%
CSCc1c(C(=O)OCC(=O)c2ccc[nH]2)oc2ccccc12	-6%	-3%
COc1cccc(-c2nn[nH]n2)c1O	-4%	-9%
Cc1cc(C)c(NC(=O)Cn2c(SCC(=O)NCc3ccccc3)nc3ccccc32)c(C)c1	-17%	-2%
O=C(Nc1cccc(S(=O)(=O)N2CCOCC2)c1)c1cc([N+](=O)[O-])ccc1N1CCOCC1	-16%	-15%
O=C(Nc1cc2c(cc1Br)OCCCO2)c1cccnc1	-2%	-28%
O=C(NCCCN1CCN(c2ccccc2F)CC1)c1sc2ncccc2c1-n1cccc1	-10%[7.34 µM]	-9%[7.34 µM]
Cc1ccc(-c2nnc(Nc3ccc(Br)cc3)c3ccccc23)cc1S(=O)(=O)N1CCCCC1	-12%	-12%

SMILES	Vaccinia mCherry	VACV Venus inh
COc1ccc(Oc2nc3ccccc3nc2C(F)(F)F)cc1	-16%	-5%
Cc1ccc(-c2cn3c(n2)sc2cc(C(=O)N4CCCCC4)ccc23)cc1	-12%	-12%
O=C(Nc1nc2c(F)cc(F)cc2s1)c1ccc2c(c1)OCCO2	-23%	-23%
CCN=C1S/C(=C\c2cn(CC(=O)NCCOC)c3ccccc23)C(=O)N1CC	-17%	-8%
O=C(CN1CCOCC1)Nc1cc(C(F)(F)F)ccc1Cl	-3%	-8%
Nc1cc(OC(=O)c2cccs2)nn1S(=O)(=O)c1ccc(F)cc1	?	-25%
Cc1c(Cl)cccc1NC(=O)Cn1c(=O)n(Cc2nc(-c3ccccc3)no2)c(=O)c2cc3c(cc21)OCO3	-6%	-14%
CSc1nnc2ccc(-c3ccccn3)nn12	-12%	-11%
CC(Cc1nnc(SCC(=O)O)n1N)c1ccccc1 (stereo not given)	0%	-7%
CNC(=S)NNC(=O)c1cn(C)nc1C	i	-14%
CCCC(c1nnnn1Cc1cccs1)N1CCN(C2CCCC2)CC1 (stereo not given)	-22%	-8%
CCC1CCCCN1S(=O)(=O)c1ccc2[nH]c(=O)ccc2c1 (stereo not given)	i	-10%
CC(=O)CC(=O)Nc1ccn(-c2ccccc2)n1	i	-4%
O=[N+]([O-])c1ccc(O)c(N=Cc2sc3ccccc3c2O)c1	-4%	26%
COc1ccc(/C=C/C(=O)NC2CCCCCC2)cc1S(=O)(=O)N1CCOCC1	-19%	0%
Cc1nc(C(F)(F)F)ccc1C(=O)N1CCC1(C)C(=O)NS(=O)(=O)c1ccc(C(C)(C)C)cc1 (stereo not given)	-11%	-24%
CCCNC(=O)c1cc(C2CCCN(C(=O)c3cc(F)ccc3C)C2)on1 (stereo not given)	8%	1%
COc1ccc(-c2csc(NCCc3nc4cc(Cl)c(N5CCCCC5)cc4n3CCOCCO)n2)cc1	-26%	-22%
CCOC(=O)C1CCN(CCC(=O)Nc2cccc(C)c2)CC1	i	-10%
COC(=O)c1cc(C#N)c(OC)nc1C	-1%	-2%
COc1ccc(Cn2c(=S)[nH]c3ccsc3c2=O)cc1	-15%	-7%
CC(C)c1cc(-c2nc(-c3cccc(Cl)c3)no2)n[nH]1	-16%	-15%
NC(=S)N/N=C/c1ccc(-n2nncc2-c2ccc(Cl)cc2)cc1	0.79µM*	1.1µM*
COc1ccc(-n2nc(C(=O)N3CCCCC3)c(C)c(C#N)c2=O)cc1	-2%	0%
Cc1ccc(NC(=O)CN2C(=O)CC(c3ccc(F)cc3)=Nc3ccccc32)cc1F	?	?
O=C(NCc1ccccc1F)C1CC(=O)N(Cc2ccco2)C1 (stereo not given)	-20%	-4%
COc1ccc(-c2cc(C)no2)cc1S(=O)(=O)NC(C)C	-16%	-8%
CCNC(=O)C1CCCN(C(=O)c2ccc3c(c2)OCO3)CC1 (stereo not given)	38%[activator]	4%
COc1ccc(CN2CCNC(=O)C2CC(=O)NC2CCC2)c(OC)c1 (stereo not given)	-9%	-10%
CC1=C(C(N)=O)C(c2cccc(OCc3ccccc3)c2)n2nnnc2N1 (stereo not given)	i	-13%

Profiles, looked up by structure. Values in the order: Vaccinia mCherry	VACV Venus inh
CCCNC(=O)c1cc(C2CCCN(C(=O)c3cc(F)ccc3C)C2)on1 (stereo not given) is entered as 8%	1%
CC(C)c1cc(-c2nc(-c3cccc(Cl)c3)no2)n[nH]1 is entered as -16%	-15%

Some of the entries so far, field by field:
CC(Cc1nnc(SCC(=O)O)n1N)c1ccccc1 (stereo not given)
  Vaccinia mCherry: 0%	VACV Venus inh: -7%

CNC(=S)NNC(=O)c1cn(C)nc1C
  Vaccinia mCherry: i	VACV Venus inh: -14%

The listing continues:
SMILES	Vaccinia mCherry	VACV Venus inh
O=C(CNC(=O)c1ccc(Cl)cc1)N/N=C/C=C/c1ccccc1	i	-17%
O=C(C1CCC1)N1CCc2cc(S(=O)(=O)NCc3ccc(F)cc3)ccc21	2%	-3%
CC1(C(=O)NS(=O)(=O)c2cccc(OC(F)F)c2)CCN1C(=O)C1CCCCC1 (stereo not given)	-16%	4%
COc1ccc(OCC(=O)N/N=C\c2ccco2)cc1	-13%	1%
CCOc1ccc(NC(=O)C(=O)NCc2ccco2)cc1	3%	7%
N#Cc1ccc(C(=O)N2CCC3CC2c2cc(-c4ccccc4)ccc23)cc1 (stereo not given)	-21%	-15%
CCCc1nc(C(C)(C)O)c(C(=O)OCc2oc(=O)oc2C)n1Cc1ccc(-c2ccccc2-c2nn[nH]n2)cc1	-17%	-12%
Cc1ccccc1S(=O)(=O)Cc1ccc(C(=O)NCCc2ccccc2)o1	-15%&-14%	-9%&-4%
COc1ccc(-c2cc(C(=O)OCC(=O)N3CCOCC3)c3ccccc3n2)cc1	-29%	-19%
CCOc1ccc(CCNC(=O)CCc2nc(-c3ccc(OC)cc3)no2)cc1OCC	·	-17%
Cc1cccc(-n2ncc3c(N)ncnc32)c1	-30%	-22%
Cc1cccc(Nc2nccc(N(C)C)c2C#N)c1	i	-3%
COc1ccc(-c2onc3ccc(C(C)=O)cc23)cc1	-12%	-14%
O=C(O)c1ccc(Cl)c(N2C(=O)Nc3ccccc3N2O)c1	-2%	-6%
O=C(CCN1C(=O)C2C3C=CC(C3)C2C1=O)N1CCN(c2ccccc2Cl)CC1 (stereo not given)	-1%	-8%
Cc1ccc(S(=O)(=O)NNC(=O)c2cc(C)c(C)cc2N)cc1	0%	-7%
CCOc1ccc(C(C(=O)NCCOC)N(CCOC)C(=O)CCC(=O)Nc2ccccn2)cc1 (stereo not given)	-19%	2%
CCOc1ccc2c(=O)c(Oc3ccccc3)c(C)oc2c1	-29%	-12%
Cc1ccc(CNC(=O)CNS(=O)(=O)c2ccc3c(c2)C(C)(C)C(=O)N3C)cc1	i	-9%
COc1ccc(S(=O)(=O)NCC(c2ccco2)N2CCN(c3ccccc3F)CC2)cc1OC (stereo not given)	-5%	-12%
COc1ccc2oc(C(=O)N(C)CCOc3ccccc3)c(C)c2c1	-21%	-5%
Cc1cccc(NS(=O)(=O)c2cc(C(=O)OC(C)C(=O)NCc3ccc4c(c3)OCO4)ccc2C)c1 (stereo not given)	?	-28%
Cc1ccccc1C(=O)NC(C)c1ccc2c(c1)CCCC2 (stereo not given)	·	-8%
O=C(Nc1ccc(O)cc1)c1c(O)c2c([nH]c1=O)CCCC2	-19%	-8%
O=C(Nc1cccc(C(F)(F)F)c1)C1CCN(S(=O)(=O)c2cccs2)CC1	-7%	-12%
COc1ccc(-n2cnnc2SCC(=O)NC2CCCc3ccccc32)cc1 (stereo not given)	-11%	-27%
COc1ccc(N(C)S(=O)(=O)c2cccc(C(=O)NCc3ccc(C)cc3)c2)cc1	-27%	-14%
CC1CCN(c2ccc(C(=O)Nc3ccc4c(c3)OCO4)cc2[N+](=O)[O-])CC1	-23%	-12%
O=C(O)C1Cc2[nH]cnc2C(c2cccc([N+](=O)[O-])c2)N1 (stereo not given)	-17%	-10%
C=CCNC(=O)COC(=O)c1c2c(nc3ccccc13)CCC2	-4%	-14%

SMILES	Vaccinia mCherry	VACV Venus inh
Cc1cnc(NC(=O)c2sc3ccccc3c2Cl)s1	i	-7%
O=C(Nc1cccc(-c2ccc(N3CCCCC3)nn2)c1)c1ccc(Br)o1	-20%	?
COc1ccc(NC(=O)C(C)n2nnc3sc(-c4ccccc4)cc3c2=O)cc1Cl (stereo not given)	-6%	-1%
CCCCN(C)C(=O)C1CCN(Cc2ccc(OCc3ccccc3)cc2)CC1	?	-23%
CCc1cccc(CC)c1NC(=O)COC(=O)Cc1ccsc1	i	-6%
COc1ccccc1CNC(=O)c1ccc(N(C)S(=O)(=O)c2ccc(C)cc2)cc1	-15%	-10%
c1ccc(Cn2nnnc2CN2CCN(Cc3ccc4c(c3)OCO4)CC2)cc1	·	?
CCOC(=O)C1=NN(c2ccccc2)C(=O)/C1=C\c1ccc(N(C)C)cc1	-23%	?
CCN1CCCC1CNC(=O)c1cnn(-c2nccc(-c3cc4ccccc4o3)n2)c1C (stereo not given)	-6%	-10%
COc1ccc(Nc2nc(-c3cccs3)nc3ccccc23)c(OC)c1	-13%	-16%
Cn1c(CC(=O)Nc2ccccc2F)nnc1SCC(=O)NC1CCCCC1	5%	-8%
c1ccc(SCc2nc(-c3cccnc3)no2)cc1	·	-6%
COc1ccc(Nc2cc(C)nc3nc(C)nn23)cc1Cl	-12%	-6%
CCCCc1c(-c2ccccc2Br)ncn1CCc1ccccc1OC	-14%	-20%
CC(=O)Nc1ccc(NC(=O)C(C)OC(=O)CCN=C2NS(=O)(=O)c3ccccc32)cc1 (stereo not given)	-9%	-6%
CC(=O)Nc1cc(-c2nn(CC(=O)N3CCCCC3)c(=O)c3ccccc23)ccc1N1CCOCC1	i	-9%
CC(C)C(c1nnnn1Cc1ccccc1)N1CCc2ccccc2C1 (stereo not given)	-5%	-2%
Cc1cc(C(=O)NCc2ccc(F)cc2)c2ccccc2n1	-15%	-10%
COCCCNC(=S)N1CCC(NC(=O)Nc2ccc(C)cc2)CC1	-12%	-16%
O=C(Cc1ccccc1)NCC(=O)N/N=C/c1ccc([N+](=O)[O-])s1	?	?
CCS(=O)(=O)c1ccc2oc(SCC(=O)Nc3ccc(OC)cc3OC)nc2c1	i	-4%
C(=N\Nc1nc(Nc2ccccc2)nc(Nc2ccccc2)n1)/c1ccncc1	-9%	-4%
